Compound activity (PubChem)
Sfp inh = blocks B. subtilis Sfp PPTase activity | Q9F4F7 | Biochemical Sfp PPTase activity, qHTS | Potency, µM, for the others: max response, negative = inhibition, usual class: inhibitors | 3.5% of 310,000 active; active = well fitted inhibition curve with a large enough effect; inconclusive = small, poorly fitted or top-dose-only effect, or another doubt; inactive = no such curve, though single readings can be large or run the other way;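 note: the enzyme is Sfp with the accession as filed and its product quenches rhodamine fluorescence; potency is the fitted concentration of half-maximal effect; 0% = enzyme reaction without inhibitor and -100% = no enzyme wells; top concentration of the series not given in the record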
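With Hepes-Na pH 7.6 buffer containing 10 mM MgCl2, Sfp (15 nM) modified BHQ-2-YbbR (12.5 uM) using rhodamine-CoA (5 uM). Two reads 30 minutes apart at 525/598 nm yielded each well's rate.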
gsp agonist = activates gsp, the McCune-Albright syndrome mutation; gsp mutant cells, cAMP HTRF, 30 min; control for the full effect not named in the record; 0.13% of 340,000 active; AID 624287; Potency, µM (titrated, usually from 76.9 µM), inactives show top-dose activation (cAMP increase), hits mostly activators; active = well fitted activation curve with a large enough effect; inconclusive = small, poorly fitted or top-dose-only effect, or another doubt; inactive = no such curve, though single readings can be large or run the other way; cell line not stated here;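 note: phosphodiesterase inhibitor Ro 20-1724 added with compounds to block cAMP breakdown; potency is the fitted concentration of half-maximal effect; nearly all actives have a fitted effect of over 60% in size; about a fifth of the inactives were tested at one dose only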
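Cells stably selected in G418 were plated at 2000/well, grown 16-24 hr, then given compounds in DMSO with the PDE inhibitor […] (300 uM solution added) for 30 min at 37C; cAMP was read by HTRF.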
Menin-MLL FL inh = menin-MLL binding inhibition, fluorescein peptide. Fluorescence polarization, fluorescein-MLL peptide displacement from menin. FP activity change, % at 61.4 µM. 290,000 tested, under 10 active. AID 1766; inconclusive = falling polarisation curve, or a change in total fluorescence; inactive = total fluorescence flat and polarisation flat or rising; no compound was filed as active; the % refers to the polarisation; negative = inhibition;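 note: % of control where 0% means no effect; inhibitors lower the polarisation; unlabelled MLL peptide was the positive control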
TRPML1 blocker = blocks the human TRPML1 channel | Q9GZU1 | TRPML1-inducible cells, Ca2+ dye fluorescence, FDSS; stronger effect = lower value; inhibition of EC80 agonist-evoked calcium signal | activity change, negative = inhibition, % (concentration not given with the values) | 0.02% of 390,000 active; in the data active means activity change below about -50%; inconclusive means about -30% to -50%; inactive means above about -30%;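 note: stimulus is agonist 54-4 at its EC80 concentration; % is set by controls: 0 for no effect and ±100 for the full control effect; compound concentration not given in the record; the text of the record puts the active cut at -80%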
Target sequence (Q9GZU1 whole entry, looked up): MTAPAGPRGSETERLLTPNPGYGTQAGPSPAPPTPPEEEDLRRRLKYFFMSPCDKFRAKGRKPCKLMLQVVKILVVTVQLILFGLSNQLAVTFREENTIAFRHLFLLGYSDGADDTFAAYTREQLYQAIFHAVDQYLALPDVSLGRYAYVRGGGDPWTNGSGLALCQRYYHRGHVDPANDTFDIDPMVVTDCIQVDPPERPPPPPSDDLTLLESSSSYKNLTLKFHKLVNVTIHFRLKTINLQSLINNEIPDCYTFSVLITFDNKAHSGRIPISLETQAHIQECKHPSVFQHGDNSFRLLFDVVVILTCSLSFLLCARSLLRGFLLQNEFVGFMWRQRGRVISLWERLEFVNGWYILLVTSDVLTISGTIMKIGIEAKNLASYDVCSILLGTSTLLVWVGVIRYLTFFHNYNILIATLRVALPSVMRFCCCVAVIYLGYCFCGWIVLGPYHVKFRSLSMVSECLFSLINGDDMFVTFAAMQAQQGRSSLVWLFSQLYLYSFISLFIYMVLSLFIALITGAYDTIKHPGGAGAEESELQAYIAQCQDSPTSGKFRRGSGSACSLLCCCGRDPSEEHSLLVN
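Tet-induced TRPML1-DL cells loaded with Ca8 no-wash calcium dye were read kinetically on FDSS. Compound addition was followed by EC80 agonist 54-4 (4 uM final); inhibition was read over 110 s.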
gsp antag = antagonizes gsp, the McCune-Albright syndrome mutation; AID 624288; Potency, µM (titrated, usually from 76.9 µM), without a hit: at the highest dose activity change, negative = inhibition, hits mostly inhibitors; 0.4% of 340,000 active; gsp-mutant cells, cAMP HTRF, 30 min; control for the full effect not named in the record; active = falling curve of any shape with a large fitted effect; inconclusive = falling curve, mostly with a smaller effect; inactive = flat or rising curve; cell line not stated here;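 note: intracellular cAMP measured with PDE inhibitor Ro 20-1724 present during compound exposure; potency is the fitted concentration of half-maximal effect; % is set by controls: 0 for no effect and ±100 for the full control effect; nearly all actives have a fitted effect of over 65% in size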
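Cells in G418 medium, seeded 16-24 h, 37C; buffer exchange to DPBS + 1 mM CaCl2, 0.5 mM MgCl2, 0.05% BSA; cpds in DMSO + […] (300 uM stock), 30 min 37C; HTRF cAMP detection.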
ClpP mod = qHTS Assay for Activators of ClpP | ATP-dependent Clp protease proteolytic subunit (Bacillus subtilis (strain 168)), P80244 | 1.9% of 340,000 active | purified B. subtilis ClpP, FRET peptide cleavage, 20 min | Potency, µM (highest dose often 57.5 µM), for inactives: at the top dose activity change, negative = active; active = well fitted falling curve with a large enough effect; inconclusive = small, poorly fitted or top-dose-only effect; inactive = no such curve, though single readings can be large or run the other way; note: potency is the fitted concentration of half-maximal effect; the source files actives as falling curves though it sought activators and does not explain the sign; nearly all actives have a fitted effect of over 65% in size; many hits overshoot -100%
Target sequence (P80244 whole entry, looked up): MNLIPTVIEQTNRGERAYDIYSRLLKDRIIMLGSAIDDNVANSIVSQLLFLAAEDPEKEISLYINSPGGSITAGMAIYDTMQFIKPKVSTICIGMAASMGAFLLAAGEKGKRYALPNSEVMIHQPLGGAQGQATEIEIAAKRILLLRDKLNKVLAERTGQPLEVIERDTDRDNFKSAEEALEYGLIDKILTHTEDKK
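FRET quenching reversal measured ClpP activation: 10 microg/mL B. subtilis ClpP at pH 8 with the FRET-FV decapeptide, read at 430 nm after 320 nm excitation. The 20-min minus 0-min signal was scaled between DMSO/no-enzyme wells and ADEP (5.8 microM final).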
TRPV1 potentiator = human TRPV1 potentiation; Q8NER1; TRPV1-expressing cells, Fluo-8 calcium influx, capsaicin EC20 potentiation; host cell line not named in the record; control for the full effect not named in the record; potentiation, % at 8.33 µM; 0.02% of 320,000 active; AID 540277; active means potentiation above 80%; inconclusive means 30% to 80%; inactive means below 30%; note: 0% is about no effect
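Fluo-8 calcium influx in TRPV1-expressing cells, kinetic read (ex 480/em 520 nm). Compound added and read 3 min for agonist activity, followed by capsaicin at EC20 final and 2 min further read for enhancement.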
An asterisk follows results filed as active; ? = inconclusive; . = not tested or not shown; [ ] = dose if it differs, or a comment.

Order of values – gsp antag	TRPML1 blocker	gsp agonist	Sfp inh	ClpP mod	Menin-MLL FL inh	TRPV1 potentiator
- O=C(NC1CC(=O)c2sccc21)c1cccc(C(F)(F)F)c1 (configuration not stated)
  8%	-23	31%[15.4 µM]	-2%	.	2.9	5
- O=C(COC(=O)[C@@H]1CCCN1C(=O)c1cccs1)Nc1cccc([N+](=O)[O-])c1
  -11%	-2	-28%	.	.	.	.
- NC(=O)C1=C[C@@H](c2ccccc2)C[C@@H](OCc2ccc(CO)cc2)O1
  5%	-1	.	-3%	-0.9%	-4.7	29
- CCCCn1c(N)c(N(CCOC)C(=O)CSc2ccc([N+](=O)[O-])cc2)c(=O)[nH]c1=O
  -3%	-16	8%	.	-2.5%	.	-4
- CC(=O)c1cccc(NC(=O)N2CCOCC2)c1
  7%	-9	13%	15%	0.5%	3.8	12
- CC(=O)NC(NC(=S)Nc1cccc(Br)c1)C(Cl)(Cl)Cl (configuration not stated)
  -6%	37	-3%[15.4 µM]	-30%	.	1.0	14
- O=C(COC(=O)/C=C/c1cccc(F)c1)NC1CCCC1
  -18%	-14	-17%	.	1.0%	.	7
- CC(C)(C)NS(=O)(=O)c1ccc2c(c1)oc(=O)c1cc(S(=O)(=O)NC(C)(C)C)ccc12
  15%	-1	13%	7%	?	3.7	-6
- CC1Cc2ccccc2N1C(=O)CSc1nc(-c2ccccc2)cs1 (configuration not stated)
  ?	0	-49%[inhibitor]	4%	-2.5%	3.7	5
- CC(C)Oc1ccc(Br)cc1C(=O)N/N=C/c1c[nH]c2ccccc12
  ?	5	-9%[15.4 µM]	-1%	.	2.5	-46
- O=C(Nc1ccc(Cl)c(S(=O)(=O)N2CCCCC2)c1)C1=COCCO1
  5%	-12	27%	.	14µM*	.	-3
- O=C(COC(=O)c1cccc(S(=O)(=O)NCc2ccccc2)c1)c1ccc2c(c1)OCCO2
  -11%	-10	18%	9%	.	0.3	5
- N#CCC(=O)N/N=C/c1cn(Cc2cccc3ccccc23)c2ccccc12
  11%	19	-3%	-1%	-6.3%	0.8	.
- Cc1ccc(CN(Cc2cc3cc(C)ccc3[nH]c2=O)C(=O)N2CCOCC2)cc1
  1%	5	0%	2%	?	2.5	9
- C=CCn1c(-c2c(C)nc3cc(C)ccn23)n[nH]c1=S
  -13%	-18	-9%	1.8µM*	-28%	-1.8	4

Next section.
Order of values – gsp antag	TRPML1 blocker	gsp agonist	Sfp inh	ClpP mod	Menin-MLL FL inh	TRPV1 potentiator
- Cn1nnnc1SCC(=O)Nc1ccccc1C(=O)NC1CC1
  -18%	-9	-2%	20%	-3.1%	3.1	1
- CCCCNS(=O)(=O)C1CCS(=O)(=O)C1 (configuration not stated)
  4%	-12	10%	10%	0.5%	5.2	4
- COc1cccc(NC(=O)CCc2nnc3ccc(N4CCC(C)CC4)nn23)c1
  -17%	-5	13%	9%	-2.2%	-1.7	14
- CC(C)CC(=O)Nc1cccc(-c2csc(-c3ccccc3)n2)c1
  -18%[15.4 µM]	-8	-17%	-6%	-0.3%	1.8	.
- NS(=O)(=O)c1ccc(NS(=O)(=O)c2ccc3c(c2)OCCO3)cc1
  1%	-6	2%[15.4 µM]	12%	.	-1.7	6
- COc1cccc(CC(=O)N2CCN(S(=O)(=O)c3ccc(Br)cc3)CC2)c1
  -21%	-10	-14%	.	-1.0%	.	12
- O=C(COc1ccccc1[N+](=O)[O-])NNC(=O)Nc1cccc2ccccc12
  10%	-5	-72%[inhibitor]	?	-26%	-3.0	-9
- Cc1ccc(CNc2ccc(N3CCOCC3)c(C(=O)O)c2)s1
  2%	0	-13%	7%	-16%	1.2	16
- Cc1cc(=O)c2c(C)ccc(C)c2[nH]1
  6%	7	-46%	12%	4.3%	6.7	?
- CCOC(=O)C1CCN(C(=O)c2ccccc2NS(=O)(=O)c2ccccc2)CC1
  5%	-14	-7%	15%	2.4%	0.5	17
- CCCCCCCCOC(=O)c1c(CSC(=N)N)n(C)c2cc(Br)c(OC(C)=O)cc12
  -8%	2	-1%	40µM*	-1.5%	-6.6	9
- CCOC(=O)c1cc2c(ccn2-c2ccc(F)cc2)n1CC(=O)NC(C)(C)C
  .	.	.	3%	.	0.0	10
- Cc1ccc(NC(=S)NC(=O)c2cccs2)cc1F
  -19%	-14	-9%	.	.	.	.
- O=C(Nc1ccccc1Oc1ccccc1)c1cnccn1
  0%	-5	3%	-6%	-1.7%	2.7	-14
- O=C(NC(=S)NC(c1ccccc1)c1ccncc1)c1ccccc1 (configuration not stated)
  -17%	29	-11%	11%	-2.2%	4.0	-24

Additional entries:
Order of values – gsp antag	TRPML1 blocker	gsp agonist	Sfp inh	ClpP mod	Menin-MLL FL inh	TRPV1 potentiator
- Cc1ccc(CNC(=O)CCCn2nc(C)n3ccnc3c2=O)cc1
  4%	50	?	13%	-1.2%	-0.3	8
- O=C(CCN1C(=O)C2CCCCC2C1=O)Nc1nc2ccc(F)cc2s1 (configuration not stated)
  19%	2	-7%	.	-3.0%	.	-26
- N#C/C(=C/c1ccc(N2CCOCC2)o1)C(=O)N1CCOCC1
  ?	5	18%	56µM*	-1.3%	?	-1
- CCOC(=O)C1(CC2CCCCO2)CCN(C2CCSCC2)CC1 (configuration not stated)
  2%	15	-1%[15.4 µM]	12%	.	-4.0	5
- COc1cc(C(c2nnnn2C2CCCC2)N2CCN(C)CC2)cc(OC)c1OC (configuration not stated)
  0%	25	-42%[inhibitor]	16%	-0.8%	4.6	13
- COCCN(Cc1ccccc1)C(=O)c1ccc(C(=O)c2ccccc2)cc1
  -8%	7	29%	.	-1.2%	.	-3
- O=C(NCCCc1ccc(F)cc1)C1CCC(=O)N(CCN2CCOCC2)C1 (configuration not stated)
  15%	-5	-29%	11%	-0.1%	-1.1	-2
- Cc1ccc2c(CC(=O)Nc3cccc(S(=O)(=O)N4CCOCC4)c3)coc2c1
  -3%	-11	0%[15.4 µM]	3%	-7.5%	0.0	0
- CC(=O)NC1=NN(C(C)=O)C(C)(CCS(=O)(=O)c2ccc(Cl)c(Cl)c2)S1 (configuration not stated)
  0%	0	-13%	-1%	0.7%	6.1	11
- CCCCNC(=O)N1CCN(C/C=C/c2ccccc2)CC1
  5%	14	?	20%	-0.8%	4.8	-1
- Cc1ccc(NC(=O)COc2cccc(C)c2C)cc1S(=O)(=O)N1CCCCCC1
  -13%	22	-1%[15.4 µM]	.	.	.	1
- O=C(COC(=O)c1cc(Cl)ccc1Cl)NC1CCCC1
  6%	-7	3%[15.4 µM]	9%	.	.	-11
- Cc1ccc(NC(=O)C2CCN(S(=O)(=O)c3ccc(F)cc3)CC2)cc1
  -18%	2	?	13%	0.2%	0.1	-2
- O=C(NCc1ccc(Cl)s1)C1CCC(=O)N(CCc2ccccn2)C1 (configuration not stated)
  0%	-6	?	12%	-3.0%	1.8	4
- N#Cc1c(SCC(=O)Nc2cccc(C(F)(F)F)c2)sc2c(O)cc(=O)[nH]c12
  -17%	51	8%	40µM*	.	35[activator]	1

(list continues)
Order of values – gsp antag	TRPML1 blocker	gsp agonist	Sfp inh	ClpP mod	Menin-MLL FL inh	TRPV1 potentiator
- COc1ccc(NC(=O)C2CC(=O)OC23CCOC(C)(C)C3)cc1 (configuration not stated)
  2%	-7	1%	-2%	0.5%	-0.2	-1
- COCCN(CC(=O)Nc1cccc(C)c1C)C(=O)CN1C(=O)NC2(CCCCC2)C1=O
  10%	-2	-46%[inhibitor]	.	1.0%	.	3
- Cc1ccc(S(=O)(=O)N[C@H](C(=O)N2CCC(C(=O)NCC(=O)O)CC2)C(C)C)cc1
  4%	-11	10%	28%	-2.3%	1.6	26
- CCOCCCNC(=S)N1CCC(NC(=O)C2CCCCC2)CC1
  -4%	30	11%	10%	-2.2%	3.8	-9
- O=C(c1ccco1)N1CCN(Cc2cccnc2)CC1
  4%	8	-1%	?	2.0%	0.7	3
- CCOC(=O)N1CCN(C(=O)COc2cc(=O)n(CC)c3ccccc23)CC1
  -4%	-1	0%	16%	-5.3%	-1.0	14
- CC(C)(C)OC(=O)NCc1ccc(NC(=O)c2nc[nH]c2C(=O)N[C@@H](Cc2ccccc2)C(=O)OC(C)(C)C)cc1
  11%	46	.	25%	-25%	3.8	5
- O=S(=O)(c1ccccc1)N1CCN(C2CCCCCCC2)CC1
  17%	-10	5%	-4%	0.2%	1.9	-23
- Cc1ccnc(N2C(=O)c3cccc4c([N+](=O)[O-])ccc(c34)C2=O)c1
  2%	34	24%	-9%	-0.1%	?	-7
- O=C1c2ccccc2C(=O)N1CCN1CCOCC1
  9%	-6	-45%[inhibitor]	-7%	1.2%	-1.6	-2
- O=C(Nc1ccccc1NC(=O)c1ccccc1Cl)c1ccccc1Cl
  1%	5	7%	8%	-0.4%	4.2	20
- COc1ccccc1C1NC(=O)NC(C)=C1C(C)=O (configuration not stated)
  -12%	6	-9%	5%	1.3%	5.6	4
- COC(=O)CSc1nc(NC(C)C)nc(N(C)C)n1
  -8%	1	0%	0%	.	-0.8	-9
- COc1ccc(Cl)cc1NC(=O)CN(C)C(=O)CN1C(=O)NC2(CCCC2)C1=O
  7%	12	1%	.	-11%	.	0
- CCOC(=O)c1ccc(S(=O)(=O)N2CCN(C(=O)c3cc4ccccc4o3)CC2)cc1
  -4%	3	-51%[inhibitor]	.	0.8%	.	5

Gathered by group: those above containing a furan ring, fused or not
Order of values – gsp antag	TRPML1 blocker	gsp agonist	Sfp inh	ClpP mod	Menin-MLL FL inh	TRPV1 potentiator
- N#C/C(=C/c1ccc(N2CCOCC2)o1)C(=O)N1CCOCC1
  ?	5	18%	56µM*	-1.3%	?	-1
- Cc1ccc2c(CC(=O)Nc3cccc(S(=O)(=O)N4CCOCC4)c3)coc2c1
  -3%	-11	0%[15.4 µM]	3%	-7.5%	0.0	0
- O=C(c1ccco1)N1CCN(Cc2cccnc2)CC1
  4%	8	-1%	?	2.0%	0.7	3
- CCOC(=O)c1ccc(S(=O)(=O)N2CCN(C(=O)c3cc4ccccc4o3)CC2)cc1
  -4%	3	-51%[inhibitor]	.	0.8%	.	5
